Assay outcomes: PubChem, National Center for Advancing Translational Sciences (NCATS)
Menin MLL FP FL = displaces fluorescein MLL peptide from human menin. Fluorescence polarization, fluorescein-MLL peptide displacement from menin. FP activity change, % at 61.4 µM. AID 1766. 290,000 tested, under 10 active; inconclusive = falling polarisation curve, or a change in total fluorescence; inactive = total fluorescence flat and polarisation flat or rising; no compound was filed as active; the % refers to the polarisation; negative = inhibition;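 note: % of control where 0% means no effect; inhibitors lower the polarisation; unlabelled MLL peptide was the positive control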
ClpP mod = qHTS Assay for Activators of ClpP; ATP-dependent Clp protease proteolytic subunit (Bacillus subtilis (strain 168)), P80244; purified B. subtilis ClpP, FRET peptide cleavage, 20 min; Potency, µM (titrated, usually from 57.5 µM), inactives show top-dose activity change, negative = active; hit rate 1.9% among 340,000; active = well fitted falling curve with a large enough effect; inconclusive = small, poorly fitted or top-dose-only effect; inactive = no such curve, though single readings can be large or run the other way; note: potency is the fitted concentration of half-maximal effect; the source files actives as falling curves though it sought activators and does not explain the sign; nearly all actives have a fitted effect of over 65% in size; many hits overshoot -100%
Target sequence (P80244 whole entry, looked up): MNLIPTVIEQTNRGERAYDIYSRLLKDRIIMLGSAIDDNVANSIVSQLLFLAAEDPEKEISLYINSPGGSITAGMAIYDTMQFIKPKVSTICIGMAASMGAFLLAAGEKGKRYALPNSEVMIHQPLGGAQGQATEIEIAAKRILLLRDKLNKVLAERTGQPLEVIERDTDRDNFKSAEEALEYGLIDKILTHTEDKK
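FRET quenching reversal measured ClpP activation: 10 microg/mL B. subtilis ClpP at pH 8 with the FRET-FV decapeptide, read at 430 nm after 320 nm excitation. The 20-min minus 0-min signal was scaled between DMSO/no-enzyme wells and ADEP (5.8 microM final).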
Sfp PPTase inh = inhibitors of Bacillus subtilis Sfp phosphopantetheinyl transferase; Biochemical Sfp PPTase activity, qHTS; AID 1490; Potency, µM, without a hit: max response, negative = inhibition, hits mostly inhibitors; hit rate 3.5% among 310,000; Q9F4F7; active = well fitted inhibition curve with a large enough effect; inconclusive = small, poorly fitted or top-dose-only effect, or another doubt; inactive = no such curve, though single readings can be large or run the other way;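 note: the enzyme is Sfp with the accession as filed and its product quenches rhodamine fluorescence; potency is the fitted concentration of half-maximal effect; 0% = enzyme reaction without inhibitor and -100% = no enzyme wells; top concentration of the series not given in the record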
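Compounds were incubated with enzyme (final 15 nM) for 15 min at room temperature before substrate addition started the reaction. Fluorescence at 525 nm excitation, 598 nm emission was recorded immediately and after 30 minutes.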
gsp antagonist = antagonists of gsp mutant (McCune-Albright syndrome). gsp-mutant cells, cAMP HTRF, 30 min; control for the full effect not named in the record. Potency, µM (top dose mostly 76.9 µM), for the others: at the top dose activity change, negative = inhibition, hits mostly inhibitors. hit rate 0.4% among 340,000. AID 624288; active = falling curve of any shape with a large fitted effect; inconclusive = falling curve, mostly with a smaller effect; inactive = flat or rising curve; cell line not stated here;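 note: intracellular cAMP measured with PDE inhibitor Ro 20-1724 present during compound exposure; potency is the fitted concentration of half-maximal effect; % is set by controls: 0 for no effect and ±100 for the full control effect; nearly all actives have a fitted effect of over 65% in size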
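HTRF cAMP read-out (cAMP-d2 plus anti-cAMP antibody-K in lysis buffer, 30 min RT). Before lysis, cells are exposed to compounds with […] for 30 min at 37C in DPBS containing Ca/Mg, BSA and Tween 20.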
D2 potentiator = positive allosteric modulators of human D2 dopamine receptor. P14416. DiscoveRx D2 beta-arrestin cells, luminescence, 90 min; 100% = 57 uM dopamine signal. potentiation, % (concentration not given with the values). hit rate 0.23% among 360,000; active = potentiation of 50% or more; inconclusive = 30% to 50%; inactive = 30% or less;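 note: compound concentration not given in the record; tested on top of an EC20 dose of dopamine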
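D2 cells co-treated with compound plus 50 nM dopamine (EC20) for 90 min at 37 deg C to detect potentiation. Beta-arrestin recruitment was read as enzyme-fragment luminescence after 1 h at ambient temperature. Full response was set by 57 uM dopamine.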
gsp ag = agonists of gsp mutant (McCune-Albright syndrome). Potency, µM (doses to about 76.9 µM), for the others: at the top dose activation (cAMP increase), hits mostly activators. hit rate 0.13% among 340,000. gsp mutant cells, cAMP HTRF, 30 min; control for the full effect not named in the record. AID 624287; active = well fitted activation curve with a large enough effect; inconclusive = small, poorly fitted or top-dose-only effect, or another doubt; inactive = no such curve, though single readings can be large or run the other way; cell line not stated here;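 note: phosphodiesterase inhibitor Ro 20-1724 added with compounds to block cAMP breakdown; potency is the fitted concentration of half-maximal effect; nearly all actives have a fitted effect of over 60% in size; about a fifth of the inactives were tested at one dose only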
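Cells stably selected in G418 were plated at 2000/well, grown 16-24 hr, then given compounds in DMSO with the PDE inhibitor […] (300 uM solution added) for 30 min at 37C; cAMP was read by HTRF.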
TRPV1 potentiator = potentiators of human vanilloid receptor 1 (TRPV1) | TRPV1-expressing cells, Fluo-8 calcium influx, capsaicin EC20 potentiation; host cell line not named in the record; control for the full effect not named in the record | potentiation, % at 8.33 µM | hit rate 0.02% among 320,000 | AID 540277; active means potentiation above 80%; inconclusive means 30% to 80%; inactive means below 30%; note: 0% is about no effect
Target sequence (Q8NER1 whole entry, looked up): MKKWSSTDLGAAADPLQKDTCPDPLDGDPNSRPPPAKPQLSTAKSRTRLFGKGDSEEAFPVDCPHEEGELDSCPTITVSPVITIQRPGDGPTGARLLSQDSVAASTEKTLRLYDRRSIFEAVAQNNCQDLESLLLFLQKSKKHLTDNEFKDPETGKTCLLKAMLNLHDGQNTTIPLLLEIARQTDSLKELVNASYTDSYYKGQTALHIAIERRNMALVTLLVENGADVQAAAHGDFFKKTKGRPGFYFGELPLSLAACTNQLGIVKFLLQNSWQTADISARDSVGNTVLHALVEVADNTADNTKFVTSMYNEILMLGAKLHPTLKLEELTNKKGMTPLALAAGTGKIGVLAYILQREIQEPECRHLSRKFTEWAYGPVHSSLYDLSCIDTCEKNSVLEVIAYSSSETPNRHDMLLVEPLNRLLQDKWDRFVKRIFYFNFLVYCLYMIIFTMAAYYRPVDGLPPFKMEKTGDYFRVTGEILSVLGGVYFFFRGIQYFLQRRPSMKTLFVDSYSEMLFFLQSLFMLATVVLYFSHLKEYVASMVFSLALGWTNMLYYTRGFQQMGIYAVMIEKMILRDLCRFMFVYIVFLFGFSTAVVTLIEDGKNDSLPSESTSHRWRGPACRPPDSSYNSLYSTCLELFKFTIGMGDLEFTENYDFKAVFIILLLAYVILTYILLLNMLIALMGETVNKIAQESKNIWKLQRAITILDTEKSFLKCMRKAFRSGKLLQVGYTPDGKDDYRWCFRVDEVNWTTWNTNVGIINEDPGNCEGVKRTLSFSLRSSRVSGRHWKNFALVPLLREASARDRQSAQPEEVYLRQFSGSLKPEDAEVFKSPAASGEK
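Fluo-8 calcium influx in TRPV1-expressing cells, kinetic read (ex 480/em 520 nm). Compound added and read 3 min for agonist activity, followed by capsaicin at EC20 final and 2 min further read for enhancement.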
Numbers without * were called inactive; u = inconclusive; x = not tested or not shown; [ ] = dose if it differs, or a comment.

Values run as follows: Menin MLL FP FL, ClpP mod, Sfp PPTase inh, gsp antagonist, D2 potentiator, gsp ag, TRPV1 potentiator
Cn1cc(CCC(=O)N2CCCC(C(=O)c3cccc4ccccc34)C2)cn1 (stereo unspecified)
 : -0.3, x, -2%, 6%, -7, 15%[15.4 µM], -22
O=C1C2C3C=CC(C4CC34)C2C(=O)N1/N=C/c1ccc(-c2ccc([N+](=O)[O-])cc2)o1 (stereo unspecified)
 : 4.6, x, -2%, -15%, -1, -8%[15.4 µM], 3
C=CCn1c(SC(C)C(=O)Nc2ccc(F)c(F)c2F)nnc1C1CC1 (stereo unspecified)
 : x, x, x, 10%, -12, -24%[15.4 µM], 6
CN(C)C(=O)N1CCN(S(=O)(=O)c2ccc3ccccc3c2)CC1
 : -2.3, x, 7%, -1%, -7, -12%, -4
COc1nc(-c2ccccc2)ncc1S(=O)(=O)c1ccccc1
 : 1.6, -0.1%, -5%, -2%, -17, u, -10
O=C(NC(Cc1ccccc1)C(=O)O)c1cccnc1Cl (stereo unspecified)
 : 1.4, x, 18%, 7%, -3, 0%, 11
CCc1ccc(NC(=O)C2=CC(c3ccc(OC)cc3)=NS(=O)(=O)N2C)cc1
 : 8.8, -6.9%, 0%, -4%, -9, -3%, 9
CSc1cccc(NC(=O)/C=C/c2ccccc2)c1
 : -3.6, 2.2%, 15%, 1%, -23, 8%, -7
COc1ccc(CC(=O)OCC(=O)Nc2cccnc2Cl)cc1OC
 : -1.8, 0.8%, 20%, 5%, -21, -4%[15.4 µM], -3
NS(=O)(=O)c1cccc(NC(=O)CSc2nc3ccccc3n2-c2ccccc2)c1
 : u, -0.6%, 79µM*, 28µM*, 16, -1%[15.4 µM], -2

Further structures follow:
Values run as follows: Menin MLL FP FL, ClpP mod, Sfp PPTase inh, gsp antagonist, D2 potentiator, gsp ag, TRPV1 potentiator
CC(=O)Nc1ccc(OCC(=O)NCCc2ccccc2)cc1
 : 0.9, x, -7%, 8%, -5, -7%, -11
CCC(Oc1ccc(C)cc1)C(=O)Nc1ccccc1C(=O)N1CCOCC1 (stereo unspecified)
 : x, -3.4%, 23%, 2%, 6, -1%[15.4 µM], -4
Cc1cc(C)c[n+](-c2nc3ccccc3nc2[N-]S(=O)(=O)c2cccs2)c1
 : 2.9, -0.3%, 14%, 7%, -1, -35%, -4
Cc1occc1C(=O)Nc1ccccc1C#N
 : x, -1.9%, -1%, 6%, -25, 11%, 0
O=C(COC(=O)/C=C/c1cccc(F)c1)Nc1ncccn1
 : 0.1, 0.5%, -1%, -6%, -3, u, 0
COc1cc(C(=O)NCC(=O)OCCN2C(=O)c3ccccc3C2=O)cc(OC)c1OC
 : 0.4, x, 16%, 0%, 5, 2%[15.4 µM], 1
CCC(C)Nc1nc2c(c(=O)n(C)c(=O)n2C)n1Cc1ccc(F)cc1 (stereo unspecified)
 : 7.0, 0.1%, 5%, 3%, -6, -16%, -5
CC(C)(C)n1c(O)c2ccc(C(=O)N=NC(=O)c3ccccc3)cc2c1O
 : 1.2, 0.1%, 5%, -9%, -26, 0%[15.4 µM], -1
COC(=O)C1CCN(S(=O)(=O)CCNC(=O)c2ccc3c(c2)OCO3)CC1
 : x, x, x, -1%, 4, -7%[15.4 µM], 6
O=C(Nc1cc(C(=O)N2CCCC2)ccc1N1CCCC1)c1ccccc1
 : 1.4, -0.5%, 8%, u, -6, -28%, 5

(next part)
Values run as follows: Menin MLL FP FL, ClpP mod, Sfp PPTase inh, gsp antagonist, D2 potentiator, gsp ag, TRPV1 potentiator
Cc1cc(C)c2c(N)c3ccccc3nc2n1
 : 0.6, 65%, 6%, 0%, -15, u, -4
Cc1ccc(C)c(NC(=S)NC23CN4CN(CN(C4)C2)C3)c1
 : 3.5, x, 5%, 16%, 0, -1%[15.4 µM], 3
Clc1ccc(-c2cnc3n2CCC3)cc1
 : 0.4, -27%, 12%, -5%, -9, u, -7
CC(=O)c1ccc(S(=O)(=O)Nc2ccc(-c3ccc4nnc(C)n4n3)cc2)cc1
 : -1.0, 1.4%, 2%, -6%, -6, u, 5
CCCn1nc(C(=O)NNC(=O)Cc2ccc(S(=O)(=O)N3CCOCC3)s2)c2ccccc2c1=O
 : x, -3.5%, x, -2%, 28, -55%[inhibitor], 1
O=C1CCCN1CC(O)CS(=O)(=O)Cc1ccc(Cl)cc1Cl (stereo unspecified)
 : -5.9, 0.8%, 9%, 10%, -9, 11%, 6
Cc1ccc(C(=O)NCCc2nnc3ccc(NCc4ccc5c(c4)OCO5)nn23)cc1
 : x, -3.7%, -5%, 2%, -14, 2%[15.4 µM], -6
Cc1cccc(C(=O)Nc2ccc(NC(=O)c3cccc(C)c3)cc2)c1
 : x, 19%, x, x, -16, -114%[inhibitor], x
COc1cc(C(=O)Nc2ccc(S(=O)(=O)N3CCCCC3C)cc2)cc(OC)c1OC (stereo unspecified)
 : -0.8, -1.3%, 3%, 5%, 3, -12%, 7
Cc1nnc(SCC(=O)Nc2ccc3c(c2)COC3=O)n1-c1ccccc1
 : 1.4, -1.2%, 14%, 3%, -3, -30%[inhibitor], 11

Additional records follow:
Values run as follows: Menin MLL FP FL, ClpP mod, Sfp PPTase inh, gsp antagonist, D2 potentiator, gsp ag, TRPV1 potentiator
CCCN1CCC(N(C)CCc2ccc(OC)c(OC)c2)CC1
 : -1.8, -8.4%, 6%, 9%, -6, u, -9
CCC(C)[C@H](NC(=O)N1CCn2c1nc1ccccc12)C(=O)NCCc1ccccc1 (stereo partly specified)
 : x, 1.8%, 5%, -7%, -6, u, -8
CCSC1=C(C#N)C(c2cccc(O)c2)CC(=O)N1 (stereo unspecified)
 : 1.7, -1.8%, -6%, 10%, 0, -7%, x
Cc1ccc(C)c(NC(=O)CN(C)C(=O)CN2C(=O)NC3(CCc4ccccc43)C2=O)c1 (stereo unspecified)
 : x, -1.0%, x, 6%, 1, u, -8
Cc1ccc(SC[C@H](CC(C)C)N2CCN(C)CCC2=O)cc1
 : -0.1, 2.1%, 18%, 11%, -12, x, -3
CCOc1ccc(NC(=O)C2CCN(c3nnnn3-c3ccccc3)CC2)cc1
 : 2.9, 1.8%, 0%, -19%, -1, 2%, 1
Cc1ccc(C(=O)c2c3ccc(N)cc3nn2CCC(N)=O)cc1
 : -2.0, -0.4%, -17%, 1%, 10, x, 5
Cc1c(NC(=O)C2CCCN2C(=O)c2cccs2)c(=O)n(-c2ccccc2)n1C (stereo unspecified)
 : 0.8, -1.3%, 23%, 9%, -25, 19%, 1
COC(=O)CSc1nc(COc2ccccc2)nc2ccccc12
 : -7.1, 0.1%, -2%, 4%, 26, u, -2
CCOC(=O)C(NCCCCl)c1ccccc1 (stereo unspecified)
 : 0.6, -1.2%, -20%, -1%, -5, -24%, -6

Later entries:
Values run as follows: Menin MLL FP FL, ClpP mod, Sfp PPTase inh, gsp antagonist, D2 potentiator, gsp ag, TRPV1 potentiator
CC(C)(C)n1nnnc1C(c1ccc(Cl)cc1)N1CCCc2ccccc21 (stereo unspecified)
 : -5.8, 0.6%, 5%, u, -2, -11%, 24
CCCCCCCNC(=O)C1(CC2CC(c3ccccc3)=NO2)CCN(C(=O)c2ccccc2)CC1 (stereo unspecified)
 : x, 0.1%, x, -22%, -9, 2%, -9
COC(=O)C(C)Oc1ccc(-c2nccc(-c3ccc(F)cc3)n2)cc1 (stereo unspecified)
 : 0.7, -4.2%, -19%, -21%, -1, 3%, 0
COC(=O)C(C(=O)OC)c1ncc(C(F)(F)F)cc1Cl
 : -0.7, 0.0%, 28%, 7%, -2, -19%, -11
COc1cc(C(=O)N/C(=C\c2cn(C)c3ccccc23)C(=O)NCCCO)cc(OC)c1OC
 : 4.5, -0.4%, -3%, 5%, -31, -40%, 2
COc1ccc(S(=O)(=O)N(C)c2ccc(C(=O)NCc3ccncc3)cc2)cc1
 : 3.7, -0.9%, 8%, -10%, -14, -11%, -24
N#Cc1c(-c2ccncc2)c2c([nH]c1=O)-c1ccccc1OC2
 : -11, x, 24%, x, x, x, -16
CCOc1ccccc1CNC(=O)C1CCN(C(=O)N2CC(C)Oc3ccc(C)cc32)CC1 (stereo unspecified)
 : -5.5, -2.9%, 10%, -29%, -6, -45%[inhibitor], 4
O=c1[nH]c2ccccc2nc1CCc1ccccc1
 : 0.5, -0.9%, 6%, 13%, -2, 13%[15.4 µM], -1
CCNc1nc(C)nc2c1oc1ccccc12
 : 2.7, -26%, 13%, 8%, -3, -26%, -11

The last two entries of the part above come first, to join the parts.
Values run as follows: Menin MLL FP FL, ClpP mod, Sfp PPTase inh, gsp antagonist, D2 potentiator, gsp ag, TRPV1 potentiator
O=c1[nH]c2ccccc2nc1CCc1ccccc1
 : 0.5, -0.9%, 6%, 13%, -2, 13%[15.4 µM], -1
CCNc1nc(C)nc2c1oc1ccccc12
 : 2.7, -26%, 13%, 8%, -3, -26%, -11
O=C(Oc1c(Cl)cc(Cl)c2cccnc12)N1CCOCC1
 : 0.0, -22%, 25%, 5%, -13, -1%, -3
Cc1ccc(NS(=O)(=O)c2ccc(Cl)c(C(=O)Nc3ccccc3-c3nc4ccccc4[nH]3)c2)cc1C
 : 3.4, 35µM*, 18%, 3%, -2, -4%, -7
CSc1sccc1/C=N/O
 : -2.3, 0.8%, 11%, -1%, -1, 5%[15.4 µM], 14
O=C1CCCC(=O)C1C(c1ccc(Cl)cc1)C1C(=O)CCCC1=O
 : x, -0.5%, x, 13%, -6, -2%, 0
COCCCNC(=O)Cn1c(=O)n(CC(=O)N2CCCCC2)c(=O)c2sccc21
 : x, 0.8%, 3%, 4%, -4, 6%, 2
CN1CCN(S(=O)(=O)c2ccc(SCCOc3ccccc3)nc2)CC1
 : 4.9, -0.5%, 5%, 14%, -8, -17%, -4
COCCNC(=O)CSc1nc2ccc(N3CCOCC3)cc2c(=O)n1CCc1ccccc1
 : 2.7, -9.9%, u, -18%, 3, -27%, 27
CCOC(=O)Cc1cnc(NC(=O)CSc2nc(C(C)C)cc(=O)[nH]2)s1
 : -3.5, x, 2%, 2%, -1, 2%[15.4 µM], 5
CCOC(=O)c1cn(CC)c2ccc(S(=O)(=O)N3CCC(C)CC3)cc2c1=O
 : 1.3, 0.3%, 22%, -5%, -1, 2%, 3
CCNc1ccc2noc3c2c1C(=O)c1ccccc1-3
 : u, 0.9%, -17%, -8%, 70*, u, -2
